# T cruzi repl: inhibitors of intracellular T. cruzi growth, primary screen, luminescence, NIH3T3 host cells; T. cruzi beta-gal in NIH3T3, 90 h; inhibition, % (no concentration beside the values); 300,000 compounds, 1.4% hits; AID 1885, 2009;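 active = mean inhibition across valid replicates above about 55%, limit read from the data; inconclusive = mean below that limit but half or more replicates reach it; inactive = mean below it, under half of replicates reach it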;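 also: signal also drops with host cell toxicity which is not excluded here; 0% = plate median of DMSO wells and 100% = zero luminescence signal; higher percent means less beta-gal luminescence so fewer parasites; stock transfer was 50 nL into about 50 µL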
# Vif TR-FRET: inhibitors of Vif binding to APOBEC3G peptide, primary screen, biochemical, TR-FRET, GST-Vif 1-94, biotin-A3G peptide, dose response retest (AID 1117319). Virion infectivity factor (Human immunodeficiency virus type 1 group M subtype B (isolate …. inhibition, %, or IC50 in µM where a hit was titrated. TR-FRET GST-Vif / biotin-A3G peptide binding; higher % means a stronger effect; test concentration not given here; strong numbers were not always called active. 260,000 compounds, 0.57% hits;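 active = above the screen mean plus three standard deviations and confirmed in dose response; inconclusive = results disagree or hit not tested in dose response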;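 also: Vif residues 1-94 fused to GST binding biotinylated APOBEC3G peptide 110-148; 0% = full assay without inhibitor and 100% = GST in place of GST-Vif; retest series ran down from 100 µM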
# RanGTP-Imp inh: inhibitors of RanGTP-importin-beta interaction, primary screen, biochemical, FRET, CFP-Ran, YFP-importin-beta, homogeneous; Ran GTPase (GTP-bound) - importin-beta complex; cell-free CFP-Ran/YFP-importin-beta FRET ratio; inhibition, % (no concentration beside the values); 300,000 compounds, 1.1% hits; AID 2216, 2009;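 active = most replicates above 15%; inconclusive = exactly half above 15%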;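 also: 0% = DMSO wells and 100% = Ran loaded with GDP instead of GTP; wells of about 40 µL received 100 nL stock; the first replicate is given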
# LANA-H2B inh: blockers of LANA interaction with H2A/H2B – biochemical, FP readout, HTS, primary screen; Protein LANA1 (Human herpesvirus 8 type P (isolate GK18)), Q9QR71; cell-free LANA-H2A/H2B peptide, fluorescence polarization; inhibition, % (no concentration beside the values); 320,000 compounds, 0.6% hits; AID 2629, 2010; in the data active = inhibition mostly above about 10%, no sharp cut-off; inactive = mostly below about 6.7%;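 also: stock transfer was 7.5 nL into about 10 µL; 0% = median of vehicle wells and 100% = median of positive control wells; one replicate is shown; the record names a cut of 25% in any replicate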
# MLL AF4-AF9 inh: inhibitors of AF4 peptide binding to AF9, primary screen, biochemical, AlphaScreen, biotin-AF4 peptide, FLAG-AF9, single point; inhibition, % at 10 µM; 350,000 compounds, 0.47% hits; Protein AF-9 (Homo sapiens), P42568; AID 651704, 2012;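 active = every replicate reaching a set inhibition limit, whatever the replicate mean, cut at about 25% in these data; inconclusive = mean inhibition reaches that limit but some replicates miss it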;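 also: 0% = plate neutral control median and 100% = total signal loss; the record names both 10 and 1 µM as test concentration; the first replicate is given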
# Target sequence (P42568 whole entry, looked up): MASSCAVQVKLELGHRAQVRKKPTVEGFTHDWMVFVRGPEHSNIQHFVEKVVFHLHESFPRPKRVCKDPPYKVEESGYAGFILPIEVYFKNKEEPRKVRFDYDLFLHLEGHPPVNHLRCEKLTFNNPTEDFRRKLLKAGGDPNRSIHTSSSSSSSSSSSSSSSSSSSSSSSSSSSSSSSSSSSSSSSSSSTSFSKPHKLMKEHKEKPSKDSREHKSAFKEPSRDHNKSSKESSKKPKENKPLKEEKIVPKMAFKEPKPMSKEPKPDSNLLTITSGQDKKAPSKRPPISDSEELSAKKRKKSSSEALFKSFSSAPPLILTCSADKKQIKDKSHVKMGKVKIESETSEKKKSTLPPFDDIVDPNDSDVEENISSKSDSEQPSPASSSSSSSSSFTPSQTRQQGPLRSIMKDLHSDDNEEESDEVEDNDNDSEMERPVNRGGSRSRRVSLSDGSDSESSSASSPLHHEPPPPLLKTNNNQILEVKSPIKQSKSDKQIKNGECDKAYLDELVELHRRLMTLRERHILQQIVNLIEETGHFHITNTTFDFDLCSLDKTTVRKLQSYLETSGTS
# Beta apoptosis: inhibitors of cytokine-induced beta cell apoptosis, primary screen, luminescence. INS-1E cytokine-induced death, ATP luminescence, 48 h; percent of positive-control rescue, neutral wells zero. protection from apoptosis, % (no concentration beside the values). 300,000 compounds, 0.8% hits;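 active = all replicates at 75% or more, or half of them and the mean; inconclusive = half reach 75% but not the mean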;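 also: 0% = cytokine-treated negative control wells and 100% = positive control rescue; higher means more ATP so stronger rescue from cytokine killing; wells of about 40 µL received 100 nL stock; the first replicate is given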
# Calb FLC: C. albicans growth inhibition with fluconazole, primary screen, CaCi-2 strain, Alamar Blue fluorescence; C. albicans CaCi-2 (fluconazole-resistant clinical isolate) + fluconazole, 48 h; growth inhibition, % (test concentration not listed); 300,000 compounds, 0.57% hits; AID 1979, 2009;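 active = most replicates above 75%; inconclusive = exactly half above 75%; inactive = most below 75%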;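 also: all wells also contain fluconazole at 8 µg/ml as a sub-toxic cotreatment; 0% = median of DMSO wells and 100% = median of geldanamycin control wells; wells of about 8 µL received 7.5 nL stock; the first replicate is given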
# A1 inh: caspase 3/7 activation in MEF A1-2A-BIM cells, primary screen, A1 inhibitor project, cell-based, luminescence, HTS | AID 2462, 2010 | Caspase-Glo 3/7 luminescence, 3 h; percent of clofoctol response, vehicle zero | 330,000 compounds, 0.066% hits | caspase activation, % (no concentration beside the values);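 active = over half of replicate activation scores above 10%, or exactly half above 10 with the replicate mean above 10; inconclusive = replicate mean below 10 yet half the replicates above 10; inactive = over half of replicates below 10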;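 also: wells of about 30 µL received 50 nL stock; many hits fall short of the cut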
# An asterisk follows results filed as active; ? = inconclusive; . = no result given; & = joins results of further samples.
SMILES,T cruzi repl,Vif TR-FRET,RanGTP-Imp inh,LANA-H2B inh,MLL AF4-AF9 inh,Beta apoptosis,Calb FLC,A1 inh
COc1ncccc1C(=O)N1CCCC(C(=O)c2cc(F)ccc2F)C1 (stereo not given),11,19%,-1.9,3.7,-4.5,0,1,-0.7
Cc1c(Cl)cccc1Nc1nc(N)nc(CN2CCCCCC2)n1,1,22%,5.2,-4.6,.,0,-4,0.6
N#Cc1ccccc1Sc1ccccc1C(=O)OCC(=O)NC12CC3CC(CC(C3)C1)C2,14,5%,2.4,3.0,.,-2,-76,-1.0
CCCn1c(CCl)nc2cc(S(=O)(=O)N3CCOCC3)ccc21,.,-7%,.,-2.1,-6.4,-2,.,2.3
O=C1C(=O)N(c2ccccc2)C(c2ccccc2[N+](=O)[O-])/C1=C(\O)c1ccccc1 (stereo not given),-13,.,-1.5,1.2,-0.2,-10,6,0.4
C=CCc1cccc(CNc2nc3ccccc3n2C(C)C)c1O,36,-1%,-1.6,4.9,.,2,1,-0.3
CCNC(=O)CSc1nnc(-c2ccccc2Br)n1-c1cccc(C(F)(F)F)c1,-4,.,-0.3,0.2,-6.6,-3,12,1.2
Cc1cc2c(cc1C)C(c1ccccc1Br)CC(=O)N2 (stereo not given),26,13%,-9.0,2.1,2.2,-2,-3,2.2
Cn1c(SCC(=O)Nc2ncc(C(F)(F)F)cc2Cl)nnc1-c1ccc(Cl)cc1,2,-4%,4.3,-2.6,-0.3,-4,-8,0.4
CCN(CC)Cc1cc(NC2=NS(=O)(=O)c3ccccc32)ccc1OC(=O)c1ccccc1,-1,3%,-2.7,-8.2,3.2,-4,-4,-0.3
O=C(O)Cn1nnnc1SCC(=O)Nc1ccc(OC(F)(F)F)cc1,0,15%,2.1,-3.2,.,-4,3,-0.7
CN1CCCC(OC(=O)c2cc(Cl)cc(Cl)c2)C1 (stereo not given),34,11%,0.1,-1.3,-1.5,-1,-20,-0.5
COc1cccc(N=Cc2nc(-c3ccccc3)oc2OC(C)=O)c1,-7,5%,-1.3,3.4,.,-11,-1,1.6
CCCN(CC(=O)Nc1ccc(F)c(F)c1F)Cc1cc(=O)n2ccsc2n1,-2,28%,1.5,0.3,1.0,5,3,-0.1
CC1CC(C)CN(C(=O)CSc2n[nH]c(N)n2)C1 (stereo not given),.,.,.,0.5,-29,5,.,0.5
COC(=O)C1=NNC2(c3ccc(C)cc3)C(=O)N(c3cccc(C)c3C)C(=O)C12 (stereo not given),2,-5%,-3.3,-5.1,.,-3,-17,-0.1
Cc1c(OCC(=O)NCCCN2CCCC2=O)ccc2c3c(c(=O)oc12)CCC3,16,.,1.3,-2.8,-2.6,4,0,0.1
Cc1cc2nnc(SCC(=O)Nc3cccc(S(=O)(=O)N4CCOCC4)c3)n2c2ccccc12,2,-18%,-1.8,-9.3,.,-13,-4,0.5
Cc1cc2cc(CNC(=O)CCC(=O)O)ccc2n1C,-1,0%,-1.1,-0.1,-0.5,-3,-5,0.1
COC(=O)Cc1c(C)c2ccc(OC(=O)c3ccccc3)cc2oc1=O,-32,3%,11,-3.8,.,4,9,0.5
COc1ccc(-c2cc(C(=O)NCCCN3CCOCC3)c3ccccc3n2)cc1OC,-17,2%,4.7,.,1.0,-4,0,0.1
Cc1cccc(NC(=O)Nc2cc(C)cc(C)n2)c1,14,.,0.6,-0.7,-0.5,-5,-8,-1.4
Cc1cc(C)c2cc(C(=O)Nc3ccc(C)c(F)c3)[nH]c2c1,-5,2%,6.1,0.2,-11,1,?,1.0
CCOC(=O)C1CCCN(C(=O)c2ccc(CS(=O)(=O)c3ccc(C)cc3)o2)C1 (stereo not given),-19,26%,0.3,-6.5,.,.,0,1.4
O=C(CN1CCN(c2ccc(F)cc2)CC1)c1ccc2c(c1)OCO2,7,8%,5.1,-0.8,.,-3,19,0.2
CCOc1ccc(/C(O)=C2/C(=O)C(=O)N(c3ncccn3)C2c2ccc(C)cc2)cc1 (stereo not given),-22,-12%,1.1,-0.9,0.8,-10,4,0.5
Cc1[nH]c(C(=O)O)c(C#N)c1C(=O)c1ccccc1,-12,-2%,3.0,-1.1,-2.4,-2,-2,1.7
O=C(CN1CCN(c2ccccn2)CC1)Nc1cccc(C(F)(F)F)c1,-9,1%,3.5,0.8,.,-13,-12,0.6
CC(C)OC(=O)CSc1nnc(-c2ccccn2)n1-c1ccccc1,-5,75%,-3.1,2.1,.,-3,-4,0.1
O=C(c1cccs1)N1CCN=C1SCc1ccccc1,-10,-6%,-1.1,-1.7,.,-16,-10,-0.2
CC(=O)Nc1ccc(S(=O)(=O)N(C)CC(=O)N/N=C/c2cccs2)cc1,-10,.,-0.6,3.4,0.2,-7,4,-0.4
OCCC1CN(Cc2cccc3nccnc23)CCN1C1CCCC1 (stereo not given),-7,11%,2.0,0.1,5.0,-1,-1,0.9
O=C(COc1ccc(F)cc1)N(CC1=CCS(=O)(=O)C1)c1ccccc1,-3,8%,1.9,-1.7,.,-10,-23,-0.7
CN(C)S(=O)(=O)c1cccc(NC(=O)CNC2CCCCC2)c1,-9,.,27*,-2.6,4.4,-2,2,1.0
CN=C1S/C(=C\c2c(OC)cc(OC)cc2OC)C(=O)N1C,2,.,-0.6,-4.5,2.8,4,5,-1.3
COc1ccc(C(=O)NCC(=O)Nc2cccc(S(=O)(=O)N3CCCC3)c2)cc1,.,.,.,-1.4,-0.9,0,.,-0.4
CCOC(=O)/C=C1\NC2(CCCCC2)Cc2cc(OC)c(OC)cc21,60*,.,6.8,-0.9,3.3,-8,-33,-0.3
Cc1cnc(NC(=O)[C@H](C)N2C(=O)C3CCCCC3C2=O)s1 (stereo not given in full),-3,12%,2.4,1.2,-0.5,-7,-6,2.1
Cc1cccc(NC(=O)Cn2cnc3sc(C)c(S(=O)(=O)N4CCC(C)CC4)c3c2=O)n1,12,-5%&9%,-1.7,-3.3,.,3,-15,1.7
CC(C)(C)CC(C)(C)NCC(O)COc1c(F)cc(Br)cc1F (stereo not given),29,7%,1.4,0.3,.,20,0,0.8
CN(C1CCCCC1)S(=O)(=O)c1ccc(SCC(=O)NC(C)(C)C)nc1,.,2%,.,2.1,-0.3,-1,.,-0.4
Cc1cccc(Nc2cc(C)nc3ccccc23)c1,8,.,7.3,-5.8,-6.0,7,-6,0.6
Cc1c(NC(=O)CSc2nnnn2Cc2ccccc2)c(=O)n(-c2ccccc2)n1C,5,1%,2.3,-6.4,.,-1,-18,-0.6
Cc1nnc(-c2ccccc2)o1,-2,-1%,3.0,-2.6,0.8,-2,2,0.3
Cc1cccc(C)c1OCC(O)CN (stereo not given),1,4%,0.2,2.4,.,-1,4,0.9
COc1ccc(Nc2cc(C)c3cc([N+](=O)[O-])ccc3n2)cc1,20,-1%,-9.6,-0.2,5.5,6,42,0.0
CCN(c1ccccc1)S(=O)(=O)c1ccc(OC)c(NC(=O)CNC)c1,-13,4%,0.2,-2.6,1.2,-3,-14,-0.1
COc1ccc(S(N)(=O)=O)cc1C(N)=O,-30,?,1.8,6.0,1.4,-2,-2,0.2
COc1ccc(NC(=O)CCSc2ccc(F)cc2)cc1,-6,30%,1.2,-4.1,0.3,-1,-46,0.4
CCOC(=O)c1c(C)n(CC(O)CN(CC)CC)c2cc(Br)c(OC)cc12 (stereo not given),40,10%,1.4,-1.8,-1.3,5,0,1.4
Cc1ccccc1Nc1cc(C)c2c(O)cccc2n1,19,-4%,0.1,-5.5,8.9,27,-8,-0.6
CCOc1ccc(-n2nc3ccc(N)cc3n2)cc1,5,3%,7.4,1.5,0.1,7,?,-2.6
CC(=O)c1cc(-c2ccccc2)n(CCC(=O)NC2CCCCC2)c1C,-2,?,4.5,-1.4,.,6,10,0.8
CCOC(=O)c1ccccc1NC(=O)COc1cc(=O)n(CC)c2ccccc12,-1,-14%,3.7,-1.4,.,3,-4,-0.2
N/C(CSc1ccccn1)=N\OCc1c(Cl)cccc1Cl,6,-3%,-2.8,-2.5,1.6,-3,9,-0.5
COc1ccc(C(=O)Nn2c(SCC(=O)NC3CCCC3)nc3ccccc3c2=O)cc1,2,-6%,-0.1,-4.0,.,0,2,-0.9
CC(C)(C)C(=O)Nc1cc2c3c(c1)CC(=O)N3CCC2,-11,.,-3.4,-7.2,-0.8,-4,13,0.4
CC(C)(C)c1ccc(C(=O)Nc2nnc(Cc3c[nH]c4ccccc34)s2)cc1,28,.,-0.3,-0.9,.,4,17,0.8
COc1ccc(OC)c(NC(=O)C(=O)c2cn(CC(=O)N3CCCC3)c3ccccc23)c1,4,.,1.6,5.7,3.5,7,-7,-0.5
CCOc1ccc(S(=O)(=O)NCCC(=O)NCC(c2ccc(F)cc2)N2CCOCC2)cc1 (stereo not given),-5,-11%,-1.3,5.4,-8.3,-8,-1,-0.1

# Continuation.
SMILES,T cruzi repl,Vif TR-FRET,RanGTP-Imp inh,LANA-H2B inh,MLL AF4-AF9 inh,Beta apoptosis,Calb FLC,A1 inh
COC(=O)c1c(NC(=O)CN2C(=O)NC(CCc3ccccc3)C2=O)sc2c1CCCCC2 (stereo not given),41,9%,-1.8,-0.8,.,-3,-2,-0.4
COc1ccc(C(=O)NNC(=O)OC(C)(C)C)cc1,-4,?,2.6,1.5,5.5,-5,2,0.4
CCOC(=O)c1sc(NC(=O)c2ccco2)c(C#N)c1C,4,7%,-2.5,-3.7,-20,17,21,-0.6
O=C(c1cccc(OC2CCN(C3CCCC3)CC2)c1)N1CCCCCCC1,20,.,1.7,-1.6,4.2,-1,-11,0.5
C[C@H](CO)N1C[C@H](C)[C@@H](CN(C)C(=O)NC2CCCCC2)Oc2ccc(NS(C)(=O)=O)cc2C1=O,.,.,.,0.9,-2.4,-4,.,-0.1
CCC(C)(C)NC(=O)/C=C/c1ccccc1[N+](=O)[O-],-7,-2%,?,1.5,-0.1,-3,7,-0.4
Cc1cccc(C)c1NC(=S)NC(=O)c1ccccc1F,-10,.,-1.1,-0.9,.,5,6,0.5
Cc1cc(C(=O)OCC(=O)Nc2cccc(S(=O)(=O)N(C)C)c2)c2ccccc2n1,-11,3%,-2.3,-8.4,0.3,1,-24,-0.2
CCOc1ccccc1OCC(=O)Nc1c(C)n(C)n(-c2ccccc2)c1=O,.,0%,.,-1.4,-3.3,-4,.,0.7
CC(=O)Nc1ccc(NC(=O)C(C)OC(=O)CC2CCCC2)cc1 (stereo not given),10,-4%,.,0.3,-18,6,4,-0.1
Cc1ccc(S(=O)(=O)N2CCC3(CC2)OCCO3)s1,2,.,?,-0.6,1.1,-6,-1,0.0
Cc1ccc(NC(=O)CN(C)C(C)C(=O)N2CC(C)CC(C)C2)cc1 (stereo not given),.,-4%,.,1.5,-2.0,5,.,0.9

# Screening data: PubChem, several laboratories
